# LANA-H2B inh: blockers of LANA interaction with H2A/H2B – biochemical, FP readout, HTS, primary screen; Protein LANA1 (Human herpesvirus 8 type P (isolate GK18)), Q9QR71; cell-free LANA-H2A/H2B peptide, fluorescence polarization; inhibition, % (test concentration not listed); 0.6% of 320,000 active; in the data active = inhibition mostly above about 10%, no sharp cut-off; inactive = mostly below about 6.7%;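 also: stock transfer was 7.5 nL into about 10 µL; 0% = median of vehicle wells and 100% = median of positive control wells; one replicate is shown; the record names a cut of 25% in any replicate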
# UCH37 inh: inhibitors of human UCH37 deubiquitinase, primary screen, biochemical, Ub-AMC cleavage, fluorescence; inhibition, % (concentration not given with the values); Ubiquitin carboxyl-terminal hydrolase isozyme L5 (Homo sapiens), Q9Y5K5; 0.33% of 330,000 active; AID 588478, 2011; purified proteasome/UCH37;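 active = mean of two replicates above 20%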;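 also: 0% = compound-free wells with enzyme and 100% = wells lacking proteasome; stock transfer was 100 nL into about 20 µL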
# Target sequence (Q9Y5K5 whole entry, looked up): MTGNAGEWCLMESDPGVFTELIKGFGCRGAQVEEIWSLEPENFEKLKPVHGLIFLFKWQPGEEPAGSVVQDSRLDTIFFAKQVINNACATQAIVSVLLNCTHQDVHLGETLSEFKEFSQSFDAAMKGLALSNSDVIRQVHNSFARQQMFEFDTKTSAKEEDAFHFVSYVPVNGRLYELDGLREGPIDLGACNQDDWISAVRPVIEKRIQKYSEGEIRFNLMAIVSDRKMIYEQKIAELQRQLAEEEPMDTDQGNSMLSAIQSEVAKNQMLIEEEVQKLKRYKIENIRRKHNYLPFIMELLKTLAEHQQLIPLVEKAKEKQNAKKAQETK
#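 Signal – fluorescence, ex 355 nm, em 460 nm · System – Proteasome-bound UCH37 · Input – 0.15 nM proteasome as dispensed · Timing – 30 min preincubation with enzyme, 25 min cleavage at room temperature · Read-out basis – percent inhibition of cleavage signal versus uninhibited and no-proteasome wells · Medium – Tris-HCl pH 7.4 with ATP-MgCl2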
# Ecoli growth: E. coli growth inhibition, primary screen, OD600; Escherichia coli growth, 23 h; stronger effect = lower value; 0.21% of 330,000 active; OD600 absorbance (test concentration not listed);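 active = OD600 absorbance below the run mean of sample wells minus 3.6 SD, in any replicate, cut at about 0.56 in these data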;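 also: stock transfer was 300 nL into about 60 µL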
# HNF4A DNA FP: change in binding of human HNF4A to DNA, primary screen, biochemical, fluorescence polarization, FITC-DNA. 1 h. 0.3% of 360,000 active. activity change, % at 10 µM. Hepatocyte nuclear factor 4-alpha (Homo sapiens), P41235; in the data active = activity change above about 30%, passing the limit was not always enough;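 also: controls were the assay level and a saturating level of protein; the project sought stronger binding though the title names inhibitors; some compounds called inactive have numbers as strong as hits; positive values seem to mean higher polarization but the record does not say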
# Bfl-1 A1 inh: caspase 3/7 activation in MEF A1-2A-BIM cells, primary screen, A1 inhibitor project, cell-based, luminescence, HTS; Caspase-Glo 3/7 luminescence, 3 h; percent of clofoctol response, vehicle zero; caspase activation, % (test concentration not listed); 0.066% of 330,000 active; AID 2462, 2010;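 active = over half of replicate activation scores above 10%, or exactly half above 10 with the replicate mean above 10; inconclusive = replicate mean below 10 yet half the replicates above 10; inactive = over half of replicates below 10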;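 also: wells of about 30 µL received 50 nL stock; many hits fall short of the cut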
# Vif A3G: inhibitors of Vif binding to APOBEC3G peptide, primary screen, biochemical, TR-FRET, GST-Vif 1-94, biotin-A3G peptide, dose response retest (AID 1117319); TR-FRET GST-Vif / biotin-A3G peptide binding; higher % means a stronger effect; test concentration not given here; strong numbers were not always called active; inhibition, %; hits with a dose series show IC50 in µM; 0.57% of 260,000 active;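 active = above the screen mean plus three standard deviations and confirmed in dose response; inconclusive = results disagree or hit not tested in dose response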;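 also: Vif residues 1-94 fused to GST binding biotinylated APOBEC3G peptide 110-148; 0% = full assay without inhibitor and 100% = GST in place of GST-Vif; retest series ran down from 100 µM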
# Beta2AR agonist: beta2AR agonists driving receptor internalization, primary screen, cell-based, FAP fluorogen, flow cytometry; AID 504454, 2011; response, % (no concentration beside the values); 0.43% of 340,000 active; Am2.2-beta2AR cells; reference of the scale not given here; Beta-2 adrenergic receptor (Homo sapiens), P07550;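 active = response above a set limit, near 3 SD of response in nonfluorescent compounds, cut at about 42% in these data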;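 also: stock transfer was 100 nL into about 11 µL; a reference agonist was the positive control; negative values mostly stem from fluorescent compounds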
# Target sequence (P07550 whole entry, looked up): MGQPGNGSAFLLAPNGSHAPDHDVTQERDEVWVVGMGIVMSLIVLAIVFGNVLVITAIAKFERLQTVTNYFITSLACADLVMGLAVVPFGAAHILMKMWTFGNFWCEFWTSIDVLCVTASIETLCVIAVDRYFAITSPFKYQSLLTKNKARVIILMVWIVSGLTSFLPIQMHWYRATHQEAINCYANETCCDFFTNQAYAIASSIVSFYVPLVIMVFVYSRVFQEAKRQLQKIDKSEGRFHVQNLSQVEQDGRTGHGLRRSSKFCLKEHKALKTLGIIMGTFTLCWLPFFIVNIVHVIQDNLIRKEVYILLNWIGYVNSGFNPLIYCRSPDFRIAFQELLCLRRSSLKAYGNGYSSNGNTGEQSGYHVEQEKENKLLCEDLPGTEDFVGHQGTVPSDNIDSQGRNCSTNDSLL
# Active calls of the source: *; u = inconclusive; x = not tested or not shown. Rows are unselected. About 2.1% of those tested had a hit in this group.
SMILES,LANA-H2B inh,UCH37 inh,Ecoli growth,HNF4A DNA FP,Bfl-1 A1 inh,Vif A3G,Beta2AR agonist
Cc1cccc(N(C(=O)Cn2nnc3ccccc32)C(C(=O)NCc2ccco2)c2ccncc2)c1 (stereo not given),-0.2,2.5,0.73,-0.3,0.5,1%,17
COC(=O)c1ccc(NC(=O)CN(c2ccc(C)cc2)S(=O)(=O)c2c(C)n[nH]c2C)cc1,13,1.1,0.72,-1.7,-0.8,5%,-2
O=C(NC(=S)NC1CCC(O)CC1)c1ccco1 (stereo not given),4.2,-0.2,0.7,-0.1,0.3,x,8
O=C1c2ccccc2C(O)N1CCN1CCOCC1 (stereo not given),-10,0.4,0.81,1.5,0.4,5%,12
C[C@@H](C(=O)N1CCNCC1)n1cc(CCCN=C(N)N)nn1,2.7,-0.3,x,4.9,-1.9,-1%,1
CC(C)NC(=O)c1ccc(N(Cc2ccccc2)S(C)(=O)=O)cc1,-2.9,-0.1,0.65,4.0,2.4,x,0
COc1ccc(N2CCN(C(=O)CN(c3ccc(OC)cc3)S(=O)(=O)c3ccccc3)CC2)cc1,2.0,2.1,0.7,0.2,0.3,-2%,2
Cc1ccc(S(=O)(=O)Nc2ccc(Cl)cc2C(=O)c2ccc(F)cc2)cc1,-6.1,-1.1,0.7,-2.5,1.5,11%,2
COc1ccc(CCNC(=O)C(=O)Nc2ccc3c(c2)OCCO3)cc1OC,-1.8,-3.7,0.7,5.5,-0.7,-11%,-1
COc1ccc(N(C(=O)CSCC(=O)Nc2cc(C)on2)C(C(=O)NC2CCCCC2)c2ccc(O)c(O)c2)cc1 (stereo not given),5.7,2.8,0.69,-3.2,0.8,x,-19
CCOC(=O)C1=CN(Cc2ccco2)S(=O)(=O)N(C)C1c1ccccc1 (stereo not given),x,4.3,0.7,-1.1,x,-1%,0
CC(C)CC(C(=O)NC(C)(C)C)N(CC1CCCO1)C(=O)c1snc(C(N)=O)c1N (stereo not given),4.3,-46,0.71,0.4,-0.3,4%,-1
CCCc1cc(-n2ccnc2)n2c(nc3ccccc32)c1C#N,-3.9,-12,0.81,59*,-0.1,5%,-38
CCCCCN(C(=O)CCC(=O)OCC(=O)Nc1ccc(C)cc1F)c1c(N)n(CCCC)c(=O)[nH]c1=O,-5.0,1.4,0.67,-2.1,0.2,x,4
CCN1CCN(c2nc3c(c(=O)n(C)c(=O)n3C)n2CCSc2ncccn2)CC1,2.1,4.5,0.7,0.0,1.2,-2%,-11
C=CCn1c(COc2ccccc2F)nnc1SCC(=O)N1CC(=O)Nc2ccccc21,3.8,4.1,0.69,1.8,-0.4,16%,5
CCCCCCN1CC(=O)N2[C@@H](Cc3c([nH]c4ccccc34)C2(C)C)C1=O,-2.0,4.9,0.65,-3.3,1.0,-9%,-6
O=C(NC(=S)Nc1ccc2[nH]c(=O)[nH]c2c1)c1cccc(F)c1,4.6,3.4,0.67,1.8,0.2,x,-9
Cc1sc2ncnc(OCC(=O)NC(C)C(C)C)c2c1C (stereo not given),-0.5,2.6,0.68,1.3,-0.3,11%,-3
COc1ccc2c(c1)C(C)(CCN)C(=O)N2C (stereo not given),3.5,-0.6,0.65,-3.8,-0.4,x,-3
Cc1ccc(CS(=O)Cc2ccc(C(=O)NCc3ccccc3Br)o2)cc1 (stereo not given),-2.4,2.1,0.7,0.2,0.6,x,5
O=C(NCCCCCCNC(=O)c1ccncc1)c1ccncc1,-2.6,-5.0,0.69,-3.0,0.8,x,10
Cc1cccc(CN2CCN(CC(C)C)C(CCO)C2)n1 (stereo not given),-4.7,1.3,0.64,2.1,0.7,x,6
COc1ccc(/C(O)=C2\C(=O)C(=O)N(CCN(C)C)C2c2cccc(OC)c2OC)cc1Cl (stereo not given),0.7,6.8,0.75,-1.4,2.5,29%,-6
Cc1ccc(NC(=O)C2CCCN(S(=O)(=O)c3c(C)noc3C)C2)c(Br)c1 (stereo not given),-1.7,0.3,0.65,-0.4,-0.1,4%,-3
Cn1c2ccc(F)cc2c2ncn(Cc3ccco3)c(=O)c21,3.3,-58,0.73,1.4,-0.7,22%,-11
Cc1cccc(Nc2nnc(SC(C)C(=O)NC3CC3)s2)c1 (stereo not given),9.2,2.3,0.68,0.0,0.8,5%,2
O=C1C2CCCN2C(c2cccs2)N1c1ccc(F)cc1 (stereo not given),3.2,-1.1,0.67,-2.7,-0.4,x,-2
Cc1cc(C(=O)NC2CCCCC2)on1,7.4,5.8,0.71,-0.4,1.6,3%,7
N=C(N)SCc1ccccn1,0.4,x,x,0.5,0.4,u,-7
CCOC(=O)Nc1cc2c(cc1[N+](=O)[O-])-c1ccccc1C2=O,x,1.0,0.69,38*,x,2%,4
CCc1ccccc1NC(=O)C1CCN(c2cnccn2)CC1,-0.7,-6.6,0.7,-1.1,0.5,x,-2
O=[N+]([O-])c1ccc(CSCc2ccc([N+](=O)[O-])cc2)cc1,x,3.0,0.72,1.1,x,3%,2
CSc1ccc(/C=C/C(=O)OCC(=O)NC2CC2)cc1,-4.7,-219,0.67,2.5,-1.3,7%,3
CC(CNC(=O)CCS(=O)(=O)c1cc2c(cc1Cl)NC(=O)CO2)c1ccccc1 (stereo not given),-2.1,5.8,0.73,2.3,0.4,x,-1
O=C(Nc1ccc(N2CCCCC2)cc1)c1cccnc1,-1.5,29*,0.65,3.0,0.0,22%,2
COc1cc(/C=C(\C#N)c2nc3ccc(C)cc3[nH]2)cc([N+](=O)[O-])c1O,x,24*,0.68,-4.7,x,u,9
C=CCn1c(SCc2ccc(F)cc2)nc2c1c(=O)[nH]c(=O)n2C,3.8,7.0,0.72,1.7,-0.4,0%,2
CCN(CC)CCNC(=O)c1ccc(NC(=O)CC(NC(=O)c2ccccc2Cl)c2ccccc2)cc1 (stereo not given),2.0,-2.0,0.7,-3.1,0.2,x,6
Cc1cc(-c2sccc2C)nc(-n2cccc2)n1,-1.2,5.3,0.68,-0.1,-0.3,17%,4

# Entries shown so far containing a nitro group on carbon (3):
SMILES,LANA-H2B inh,UCH37 inh,Ecoli growth,HNF4A DNA FP,Bfl-1 A1 inh,Vif A3G,Beta2AR agonist
CCOC(=O)Nc1cc2c(cc1[N+](=O)[O-])-c1ccccc1C2=O,x,1.0,0.69,38*,x,2%,4
O=[N+]([O-])c1ccc(CSCc2ccc([N+](=O)[O-])cc2)cc1,x,3.0,0.72,1.1,x,3%,2
COc1cc(/C=C(\C#N)c2nc3ccc(C)cc3[nH]2)cc([N+](=O)[O-])c1O,x,24*,0.68,-4.7,x,u,9

# Going on with the list.
SMILES,LANA-H2B inh,UCH37 inh,Ecoli growth,HNF4A DNA FP,Bfl-1 A1 inh,Vif A3G,Beta2AR agonist
C(=N\N1CCN(Cc2ccccc2)CC1)/c1ccc(-c2ccccc2)cc1,1.3,x,x,5.8,0.5,28%,7
COc1ccc(CCNS(=O)(=O)c2csc(C(N)=O)c2)cc1OC,-0.9,1.3,0.66,-2.7,1.7,x,-4
CN1CCN(CC(=O)c2cc(C(C)(C)C)c(O)c(C(C)(C)C)c2)CC1,-2.0,4.1,0.66,1.2,0.8,x,12
CCN(C(=O)COC(=O)/C(C#N)=C/c1ccc(N(C)C)cc1)C1CCS(=O)(=O)C1 (stereo not given),-0.5,17,0.71,46*,-0.7,-18%,-6
COc1ccc(S(=O)(=O)Nc2cc(C(=O)NCCCN3CCOCC3)ccc2N2CCOCC2)cc1,5.3,-3.3,0.66,1.1,0.8,0%,-1
O=C(Cn1c(CCCO)nc2ccccc21)Nc1ccccc1-c1ccccc1,-1.7,-0.1,0.61,0.5,-1.2,3%,6
O=C(Nc1nc2cc3c(cc2s1)OCO3)C1=COCCO1,-1.6,9.5,0.72,0.3,-8.4,x,-17
Cc1ccc(S(=O)(=O)/N=C2\CN(C)C(=O)N2C)cc1,4.7,x,x,3.0,0.4,3%,2
Cc1cc(C)c(C#N)c(SCSCc2ccccc2)n1,8.4,1.4,0.7,0.2,-0.3,-4%,-7
CCOc1cc(NC(=S)NCCCN2CCOCC2)c(OCC)cc1NC(=O)c1cccc(F)c1,5.0,-1.6,0.71,1.4,0.6,3%,0
Cc1ccc2c(c1)N(C(=O)CCC(=O)Nc1ccccc1Br)CC(C)O2 (stereo not given),-3.1,-0.1,0.75,-3.7,-0.1,x,x
CNC(=O)CCCc1nc(-c2ccccc2Cl)no1,-0.4,0.9,0.67,0.2,-0.5,-3%,-7
O=C(CN(CC1CCCO1)C(=O)c1nsc(Cl)c1Cl)NC1CCCC1 (stereo not given),-6.2,-0.3,0.72,2.1,-0.8,2%,-2
CCCCn1c(N)c(N(CC(C)C)C(=O)c2ccc(-c3ccc(C(C)=O)cc3)o2)c(=O)[nH]c1=O,3.8,-40,0.68,1.1,0.8,x,8
Cc1cc(=O)oc2cc(O[C@@H]3O[C@H](CO)[C@H](O)[C@H](O)[C@H]3O)ccc12,1.6,-3.0,0.65,-0.1,-0.1,-1%,9
O=C(NCc1cccnc1)c1ccc(COc2ccc(Cl)cc2)cc1,-6.2,0.6,0.64,4.4,0.4,7%,4
CCOc1ccc(NC(=O)CN(C)C(=O)c2cc(S(=O)(=O)N3CCCCC3)ccc2C)cc1OCC,0.1,x,x,-3.8,-0.1,x,-10
O=C(CN1CCN(S(=O)(=O)c2ccc(F)cc2)CC1)NCC1(N2CCOCC2)CCCCC1,-3.5,-1.1,0.69,1.1,0.6,x,0
CC(NC(=O)C(=O)NCCc1c[nH]c2ccccc12)c1ccccc1 (stereo not given),3.7,0.3,0.7,-0.9,-0.2,-3%,-10
O=C(COc1cc(Cl)ccc1Cl)Nc1ccc2c(c1)CCC2,-3.4,-1.7,0.69,-1.1,1.2,0%,0
CCc1cccc(CC)c1NC(=O)COC(=O)Cc1ccsc1,1.8,0.1,0.67,1.9,0.1,x,10
O=C1c2ccccc2C(=O)C1Cc1cccc2ccccc12,10,16,0.64,4.9,-0.3,u,-161
COc1ccc(Cl)cc1NC(=O)CN(C)C(=O)COc1ccccc1F,3.6,1.0,0.6,-2.0,0.9,-5%,3
O=C1Nc2ccccc2O/C1=C\c1c(F)cccc1Cl,-1.2,-15,0.65,1.5,1.1,-8%,4
O=S(=O)([N-]c1nc2ccccc2nc1-[n+]1ccc(-c2ccncc2)cc1)c1ccccc1,-13,3.8,0.73,-73,-0.2,7%,-2
COc1ccc(N(C(=O)c2snc(C(N)=O)c2N)C(C(=O)NCc2ccccc2)c2ccc(F)cc2)c(OC)c1 (stereo not given),1.9,-263,0.72,-0.5,0.0,x,1
O=C(c1noc2c1CCCC2)N1CCCC(N2CCN(c3ccccc3F)CC2)C1 (stereo not given),1.3,0.7,0.67,-1.3,0.2,x,2
CCC(=O)Nc1cccc(-n2nnnc2SCC(=O)NCc2ccco2)c1,1.6,-2.4,0.74,3.0,u,-3%,10
CC(=O)C1=C(O)C(=O)N(c2ccccn2)C1c1ccc(Cl)cc1 (stereo not given),-0.1,-5.0,0.69,-0.7,-2.1,-3%,10
CCc1onc(C)c1C(=O)Nc1ccc2c(c1)OCO2,0.6,4.0,0.68,0.3,-0.4,30%,5
Cc1ccc(CNS(=O)(=O)c2cn(C)c(=O)n(C)c2=O)cc1,2.8,2.4,0.72,4.4,0.4,x,0

# Screening results from PubChem BioAssay.
